StopGo reporter: High Throughput Screening for Foot and Mouth Disease Virus Antivirals. 410,000 tested, 1.2% active. human cells with a luciferase reporter of 2A StopGo recoding; control for the full effect not named in the record. Potency, µM (top dose mostly 57.9 µM), inactives show top-dose signal change, negative = less light; active = well fitted falling curve with a large enough effect; inconclusive = small, poorly fitted or top-dose-only effect; inactive = no such curve, though single readings can be large or run the other way; tested in HEK293T cells; also: % is scaled to controls: 0 for no effect and ±100 for the full control effect; nearly all actives have a fitted effect of over 45% in size; luciferase light after 4 h
MARV entry inh: qHTS for inhibitors of binding or entry into cells for Marburg Virus; Marburg virus pseudotyped entry inhibition, cell reporter; control for the full effect not named in the record; about a third of the inactives were read at about 46 µM; Potency, µM (doses to about 37.8 µM), for inactives: top-dose activity change, negative = inhibition, most hits filed as inhibitors; 300,000 tested, 1.8% active; AID 540276, 2011; active = well fitted inhibition curve with a large enough effect; inconclusive = small, poorly fitted or top-dose-only effect, or effect the other way; inactive = flat fitted curve, though single readings scatter; tested in HEK293 cells; about a fifth of its hits are not listed in these tables; also: % is scaled to controls: 0 for no effect and ±100 for the full control effect; luciferase read-out
NS1 function inh: qHTS Assay for Inhibitors of Influenza NS1 Protein Function | S. cerevisiae slowed by influenza A NS1, growth recovery by OD600 | Potency, µM (top dose mostly 46.1 µM), without a hit: top-dose activity, positive = more growth | 270,000 tested, 0.4% active | AID 2326, 2010; also: actives are rising curves; nearly all actives have a fitted effect of over 50% in size
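S. cerevisiae expressing influenza A NS1, grown in glucose, washed, then diluted 1:100 into pH 6.0 -URA galactose medium with 23 nl compound. Growth recovery read as OD600; NS1-free strain serves as control.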
SARS PLpro yeast: qHTS of Yeast-based Assay for SARS-CoV PLP; 330,000 tested, 0.19% active; Potency, µM (doses to about 32.9 µM), for the others: top-dose activity, positive = growth rescue; AID 485353, 2010; S. cerevisiae expressing SARS-CoV PLpro, growth rescue; control for the full effect not named in the record; also: 0% is about no effect; nearly all actives have a fitted effect of over 55% in size; growth read by luminescence after 48 h
RE007 growth inh: qHTS Assay for Inhibitors of the HIV-1 protein Vpr | Potency, µM (series often up to 92.2 µM), without a hit: top-dose activity change, negative = less growth | AID 651644, 2012 | 360,000 tested, 0.21% active | S. pombe RE007 Vpr strain, BacTiter-Glo ATP luminescence, 24 h; control for the full effect not named in the record; active = well fitted falling curve with a large enough effect; inconclusive = small, poorly fitted or top-dose-only effect; inactive = no such curve, though single readings can be large or run the other way;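 also: % is scaled to controls: 0 for no effect and ±100 for the full control effect; nearly all actives have a fitted effect of over 50% in size; the assay follows cell death caused by Vpr and the record does not say whether a fall means rescue or toxicity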
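Fission yeast RE007 carrying one integrated HIV-1 vpr copy, seeded at OD 0.01 in PMG+AL medium with 23 nL pinned compound. Grown 24 h at 30 degrees; viability read by BacTiter-Glo luminescence after 5 min.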
Cruzain inh noDet: qHTS Assay for Promiscuous and Specific Inhibitors of Cruzain (without detergent). Cruzipain (Trypanosoma cruzi), P25779. purified cruzain, Z-FR-AMC fluorescence, no detergent. Potency, µM, inactives show max response, negative = inhibition, most hits filed as inhibitors. 200,000 tested, 2.3% active; active = well fitted curve in the direction sought with a large enough effect; inconclusive = small, poorly fitted or top-dose-only effect, or another doubt; inactive = no such curve, though single readings can be large; an effect the other way counts as inactive or inconclusive;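 also: plate controls were enzyme without inhibitor for no effect and buffer without enzyme for full effect; nearly all actives have a fitted effect of over 40% in size; top concentration of the series not given in the record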
Target sequence (P25779 123-467 limits assumed): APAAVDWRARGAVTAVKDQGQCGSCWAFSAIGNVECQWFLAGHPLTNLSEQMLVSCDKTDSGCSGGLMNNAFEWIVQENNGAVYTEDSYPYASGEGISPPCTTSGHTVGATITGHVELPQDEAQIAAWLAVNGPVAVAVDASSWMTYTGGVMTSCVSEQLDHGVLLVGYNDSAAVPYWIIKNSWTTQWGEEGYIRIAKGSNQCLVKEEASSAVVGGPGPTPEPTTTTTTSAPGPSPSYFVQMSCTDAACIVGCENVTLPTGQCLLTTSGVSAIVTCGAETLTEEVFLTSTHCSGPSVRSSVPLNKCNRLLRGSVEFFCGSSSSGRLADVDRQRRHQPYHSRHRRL
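Detergent-free condition (0.00005% Triton X-100) in acetate buffer pH 5.5 with DTT. 1.5 nM enzyme and compound were pre-mixed 15 min, then 2 uM Z-FR-AMC substrate added; reaction progress from fluorescence change between first and third reads (60 s).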
Cruzain inh Det: qHTS Assay for Promiscuous and Specific Inhibitors of Cruzain (with detergent) | Potency, µM, for inactives: max response, negative = inhibition, usual class: inhibitors | 200,000 tested, 0.43% active | AID 1478, 2009 | purified cruzain, Z-FR-AMC fluorescence, 0.01% Triton | Cruzipain (Trypanosoma cruzi), P25779; active = well fitted curve in the direction sought with a large enough effect; inconclusive = small, poorly fitted or top-dose-only effect, or another doubt; inactive = no such curve, though single readings can be large; an effect the other way counts as inactive or inconclusive;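 also: plate controls were neutral wells for no effect and buffer without enzyme for full effect; nearly all actives have a fitted effect of over 40% in size; top concentration of the series not given in the record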
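Purified cruzain (1.5 nM final) was preincubated with compounds for 15 min at room temperature in 100 mM sodium acetate pH 5.5, 5 mM DTT, 0.01% Triton X-100. Reaction started with 2 uM Z-FR-AMC; AMC fluorescence change over 60 s gave activity.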
Lassa entry inh: qHTS for Inhibitors of binding or entry into cells for Lassa Virus | Lassa virus pseudotype entry inhibition, cell reporter; control for the full effect not named in the record | Potency, µM (top dose mostly 37.9 µM), without a hit: top-dose activity change, negative = inhibition, most hits filed as inhibitors | 300,000 tested, 1.2% active | AID 540256, 2011; active means well fitted inhibition curve with a large enough effect; inconclusive means small, poorly fitted or top-dose-only effect, or effect the other way; inactive means flat fitted curve, though single readings scatter; tested in HEK293 cells; also: % is scaled to controls: 0 for no effect and ±100 for the full control effect; nearly all actives have a fitted effect of over 50% in size; luciferase read-out
* hit, by the source's call; ? = inconclusive; . = no result given; & = joins results of further samples; [ ] = remark or other dose. Unless noted, calls follow the shape of the dose curve; as a rule, active means well fitted rising curve with a large enough effect; inconclusive means small, poorly fitted or top-dose-only effect; inactive means no such curve, though single readings can be large or run the other way. Potency is read from the fitted curve at half-maximal effect.

SMILES	StopGo reporter	MARV entry inh	NS1 function inh	SARS PLpro yeast	RE007 growth inh	Cruzain inh noDet	Cruzain inh Det	Lassa entry inh
CC(C)[C@H](NS(=O)(=O)c1ccc(Cl)cc1)C(=O)OCC(=O)NCCN1C(=O)CSC1=O	-14%	-11%	-3%	3%	7%	.	.	21%
CC(=O)N1CCN(c2ccc(NC(=O)c3ccc4c(c3)OCO4)cc2)CC1	8%	-8%	2%	6%	-9%	-7%	0.5%	3%
COc1ccccc1/C=C/C(=O)NC(=S)NC(C)C	-29%	?	4%	?	-2%	0%	-12%	-15%
COc1ccc([N+](=O)[O-])cc1NCc1cccnc1	4%	?	.	-4%	-6%	.	.	?
CCOC(=O)C1=C(C)N(C)C(=O)NC1c1cc2c(cc1Br)OCO2 (stereo not given)	-20%	-23%[46.1 µM]	-9%	6%	22%	7%	-5.1%	18%
CSc1nc2sc3c(c2c2nnnn12)CCC3	.	.	2%	5%	.	-6%	2.0%	.
COc1cc(C2C(C#N)=C(N)Oc3cc(O)ccc32)cc(OC)c1OC (stereo not given)	.	1.8µM*	0%	-2%	7%	3%	-3.7%	?
O=C(COc1ccccc1)N1CCN(C(=O)c2ccco2)CC1	.	23%	-2%	7%	-2%	-5%	-2.3%	?
COc1cc(C)cc(CN2CCC(Cc3ccccc3)CC2)c1O	-23%	.	8%	0%	-1%	.	.	.
Cc1ccc(S(=O)(=O)NCCC(c2ccccc2)c2ccccc2)cc1C(=O)O	5%	6%[46.1 µM]	7%	2%	-3%	.	.	.
COc1ccccc1-c1cc(C(=O)N2CCOCC2)no1	28%	?	-3%	-1%	-1%	.	.	7%[46.1 µM]
Cc1ccccc1Nc1ncnc2c1cnn2C	-3%&-12%	1%&1%[46.1 µM]	15%	-2%	-13%	0%	1.0%	-16%&-7%[46.1 µM]
CCOc1cc(C(=O)NC(C)Cc2cccs2)cc(OCC)c1OCC (stereo not given)	-11%	.	7%	2%	-24%	.	.	.
C#CCOn1c(-n2nc(C)cc2C)nc2ccccc2c1=O	-2%	?	2%	0%	-16%	.	.	12%[46.1 µM]
O=C(NCCc1ccc(F)cc1)c1ccncc1	-3%	?	-7%	-5%	11%	.	.	-2%[46.1 µM]
C=C(C)C1CC=C(C)/C(=N/NC(=O)COc2ccccc2C)C1 (stereo not given)	3%	?	-23%	-1%	0%	-12%	-2.5%	-24%
COc1ccc(Cl)cc1S(=O)(=O)N1CCN(C(=O)c2n[nH]c(=O)c3ccccc23)CC1	?	?	.	2%	-1%	.	.	?
Cc1cc(S(=O)(=O)NCC(C)C)ccc1OCC(=O)NCc1ccccn1	41%[activator]	8%	0%	.	-15%	3%	3.5%	-4%
Cc1ccc(CNc2cc(C(=O)O)ccc2Cl)s1	16%	3%	-100%	-3%	-7%	.	.	23%
N#CC1C(=N)Cc2ccccc2-c2ccccc21 (stereo not given)	-29%	?	.	.	19%	.	.	?
Cc1cc2nc(SCC(=O)Nc3nonc3C)c3c(c2cc1C)CCCC3	12%	?	0%	1%	17%	-28%	-3.4%	2%
CCOC(=O)/C(C#N)=C(/C)c1ccc(OC)cc1	0%	-7%[46.1 µM]	-2%	-4%	6%	-7%	0.5%	1%
O=C(CN1CCN(Cc2ccccc2F)CC1)Nc1ccccc1Cl	-13%	.	2%	-1%	-13%	.	.	.
CCOC(=O)c1ccc(NC(=O)CC2Nc3cc(C)c(C)cc3NC2=O)cc1 (stereo not given)	0%	1%[46.1 µM]	.	.	.	-8%	-5.8%	-5%[46.1 µM]
OCCNc1nc2ccccc2n1CCN1CCCCC1	-10%	8%	-3%	16%	34%	-15%	-1.2%	12%
O=[N+]([O-])c1ccc(C(=S)N2CCCC2)cc1	13%	-13%[46.1 µM]	2%	1%	-2%	.	.	-10%[46.1 µM]
COc1ccc(NC(=O)CN2CCN(CC(=O)Nc3ccccc3Cl)CC2)cc1Cl	40µM*	-2%	-26%	1%	-6%	7%	-5.7%	-11%
CC(CCc1ccccc1)NC(=O)c1cnc(Cl)c(Cl)c1 (stereo not given)	-6%	.	-6%	0%	4%	.	.	.
c1ccc(-c2cnc(CSc3ncnc4sccc34)o2)cc1	-6%	-11%	-62%	-49%	-5%	-10%	-7.1%	4%
Cc1[nH]n(C(N)=S)c(=O)c1N=Nc1ccc([N+](=O)[O-])cc1Cl	-10%	?	-1%	-1%	-1%	.	.	-18%[46.1 µM]
COc1ccccc1/C=C/C(=O)OCCN1C(=O)c2ccccc2C1=O	5%	.	-4%	-2%	-24%	.	.	.
Cc1noc(C)c1S(=O)(=O)NC1CCCc2ccccc21 (stereo not given)	-19%	?	-20%	-9%	6%	-7%	-1.6%	?
Cc1ccc(NC(=O)CC(O)(C(F)(F)F)C(F)(F)F)cc1	-27%	-3%	-90%	-19%	-21%	-16%	-1.1%	-6%
Cc1cc(C2C(=O)c3ccccc3C2=O)c(C)c(C)c1C	10%	.	-98%	0%	-8%	.	.	.
Cc1ccc(C)c(NC(=O)CCc2nc3cccnc3n2Cc2cccs2)c1	0%	7%[46.1 µM]	.	.	.	7%	-0.4%	6%[46.1 µM]
C=CCNC(=S)NC(=O)c1csc([N+](=O)[O-])c1	23%	17%	-1%	-2%	0%	.	.	10%
Cc1c(C)c2ccc(OCC(=O)NCCc3c[nH]c4ccccc34)c(C)c2oc1=O	0%	.	10%	-2%	-4%	.	.	.
CSc1ccccc1N=Cc1nc(-c2ccccc2)oc1O	49%[activator]	18%	-41%	-12%	-4%	-7%	-7.9%	0%
O=C(NCc1ccccn1)c1cc(Br)ccc1Cl	2%	13%[46.1 µM]	2%	1%	21%	.	.	10%[46.1 µM]
COc1ccc(C2CC(c3ccccc3)=NN2C(=O)COC(=O)c2cccc(S(=O)(=O)N3CCOCC3)c2)cc1 (stereo not given)	13%	?	?	7%	13%	15%	1.1%	1%
COc1cc(-c2cc(=O)c3c(O)cc(O)cc3o2)ccc1O	45%[activator]	.	-1%	-1%	1%	.	.	.
CCOC(=O)C(NC(=O)NCc1ccc(F)cc1)(OCC)C(F)(F)F (stereo not given)	-23%	-19%	-3%	-8%	-5%	-6%	0.7%	-30%
NC(=O)Cn1nnc(-c2ccc(C(F)(F)F)cc2)n1	27%	13%	3%	-2%	8%	-10%	2.3%	?
CCOC(=O)C1C(=O)CC(C)(O)C(C(=O)OCC)C1c1ccc(OCC)cc1 (stereo not given)	3%	-2%	-3%	8%	8%	9%	3.7%	-2%
NNC(=O)CNC(c1ccccc1)c1cc(Br)ccc1NC(=O)c1ccccc1Br (stereo not given)	-2%	?	?	-3%	-9%	-22%	-8.1%	?
COc1ccc2nc(-c3ccc(N)cc3)[nH]c2c1	?	?	-1%	-28%	-7%	10µM*	28µM*	?
CC1(C(=O)NCCOc2ccccc2Cl)CC1(Cl)Cl (stereo not given)	5%	?	-9%	.	1%	.	.	-23%[46.1 µM]
Cc1ccc(-c2cc(C(F)F)nc(NCC3CCCO3)n2)cc1 (stereo not given)	6%	0%[46.1 µM]	-68%	-60%	20µM*	18%	-9.2%	-9%
CC(=O)Nc1ccc(NC(=O)C(C)OC(=O)C2CCN(S(=O)(=O)c3ccccc3C(F)(F)F)CC2)cc1 (stereo not given)	-13%	-5%	.	2%	3%	.	.	1%
CCN1CCN(S(=O)(=O)c2ccc(Br)s2)CC1	-1%	9%	-39%	5%	1%	-3%	-0.9%	-1%
O=[N+]([O-])c1ccc(C2=NN(c3ccccc3)C(c3ccco3)C2)cc1 (stereo not given)	-10%	-1%	3%	-2%	6%	.	.	10%
Nc1c(Br)cc2c3c(cccc13)-c1ccccc1-2	18%	-13%	.	.	?	.	.	25%
Cc1nc2nncn2c(Nc2ccccc2)c1C	?	?	.	.	.	-6%	-2.3%	-5%[46.1 µM]
COc1ccc(Cl)cc1NC(=O)CCNC(=O)OCc1ccccc1	9%	.	-9%	0%	-8%	.	.	.
COC(/C=C/Nc1ccc(C)c(C)c1)=C(C#N)C#N	6%	-9%	-6%	0%	7%	-9%	2.6%	17%
COc1ccc(NC(=O)c2cccnn2)cc1	46%[activator]	.	1%	-2%	7%	.	.	.
O=C(NCCc1ccccc1)N1c2ccccc2Sc2ccccc21	28µM*	?	-30%	-27%	-16%	-1%	-5.5%	-5%
Cc1cc(C)c(NC(=O)CCCCCNC2CCCCC2)c(C)c1	0%	?	-8%	-6%	-25%	.	.	-14%[46.1 µM]
Cc1c(C(=O)Nc2ccccc2F)sc2nc3n(c(=O)c12)CCC3	12%&15%	.	-6%	-1%	11%	25%	-2.9%	-12%[46.1 µM]
Cc1ccc2c(c1)c(C)c(C)n2CC(O)Cn1nnc2ccccc21 (stereo not given)	-56%	21µM*	-53%	-33%	43%	13%	-12%	?
(further entries)
SMILES	StopGo reporter	MARV entry inh	NS1 function inh	SARS PLpro yeast	RE007 growth inh	Cruzain inh noDet	Cruzain inh Det	Lassa entry inh
Cc1ccc(Nc2ncnc(Cl)c2N)cc1	5%	?	.	.	-8%	.	.	1%
O=C(NCCS(=O)(=O)N1CCN(c2ccccc2F)CC1)c1c(F)cccc1F	-19%	-20%	.	3%	10%	.	.	-39%
O=C(Nc1ccccc1NC(=O)c1c(F)c(F)c(F)c(F)c1F)c1c(F)c(F)c(F)c(F)c1F	0%	?	-1%	0%	12%	-27%	4.7%	?
O=C(O)c1ccccc1SC1CC(=O)N(c2cccc3ccccc23)C1=O (stereo not given)	-8%	-3%[46.1 µM]	-129%	-21%	7.9µM*	.	.	-1%

Screening results: PubChem BioAssay, National Center for Advancing Translational Sciences (NCATS)
